# Source: PubChem BioAssay
# RE007 growth inh: less growth of the S. pombe RE007 Vpr strain; Potency, µM (titrated, usually from 92.2 µM), for the others: at the highest dose activity change, negative = less growth; AID 651644; actives 0.21% (n = 360,000); S. pombe RE007 Vpr strain, BacTiter-Glo ATP luminescence, 24 h; control for the full effect not named in the record; active = well fitted falling curve with a large enough effect; inconclusive = small, poorly fitted or top-dose-only effect; inactive = no such curve, though single readings can be large or run the other way;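 note: % is set by controls: 0 for no effect and ±100 for the full control effect; nearly all actives have a fitted effect of over 50% in size; the assay follows cell death caused by Vpr and the record does not say whether a fall means rescue or toxicity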
#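 Fission yeast RE007 carrying one integrated HIV-1 vpr copy, seeded at OD 0.01 in PMG+AL medium with 23 nL pinned compound. Grown 24 h at 30 degrees; viability read by BacTiter-Glo luminescence after 5 min.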
# NS1 function inh: blocks influenza NS1 protein function. S. cerevisiae slowed by influenza A NS1, growth recovery by OD600. Potency, µM (series often up to 46.1 µM), for inactives: at the highest dose activity, positive = more growth. AID 2326. actives 0.4% (n = 270,000); active means well fitted rising curve with a large enough effect; inconclusive means small, poorly fitted or top-dose-only effect; inactive means no such curve, though single readings can be large or run the other way; note: nearly all actives have a fitted effect of over 50% in size
#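 A cell-based growth assay was used: compounds that relieve NS1-induced slow growth of budding yeast raise OD600. Assay medium was yeast nitrogen base with ammonium sulphate and -URA supplement, pH 6.0, with 2% galactose.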
# Marburg entry inh: Marburg virus entry inhibition. Marburg virus pseudotyped entry inhibition, cell reporter; control for the full effect not named in the record; about a third of the inactives were read at about 46 µM. Potency, µM (doses to about 37.8 µM), for inactives: at the top dose activity change, negative = inhibition, usual class: inhibitors. actives 1.8% (n = 300,000). AID 540276; active = well fitted inhibition curve with a large enough effect; inconclusive = small, poorly fitted or top-dose-only effect, or effect the other way; inactive = flat fitted curve, though single readings scatter; tested in HEK293 cells; about a fifth of its hits are not listed in these tables; note: % is set by controls: 0 for no effect and ±100 for the full control effect; luciferase read-out
# 2A StopGo: lowers the luciferase signal of an FMDV 2A StopGo reporter; human cells with a luciferase reporter of 2A StopGo recoding; control for the full effect not named in the record; Potency, µM (highest dose often 57.9 µM), without a hit: at the top dose signal change, negative = less light; actives 1.2% (n = 410,000); active = well fitted falling curve with a large enough effect; inconclusive = small, poorly fitted or top-dose-only effect; inactive = no such curve, though single readings can be large or run the other way; tested in HEK293T cells; note: % is set by controls: 0 for no effect and ±100 for the full control effect; nearly all actives have a fitted effect of over 45% in size; luciferase light after 4 h
# LASV entry inh: Lassa virus entry inhibition | Lassa virus pseudotype entry inhibition, cell reporter; control for the full effect not named in the record | Potency, µM (series often up to 37.9 µM), for inactives: at the top dose activity change, negative = inhibition, usual class: inhibitors | actives 1.2% (n = 300,000) | AID 540256; active means well fitted inhibition curve with a large enough effect; inconclusive means small, poorly fitted or top-dose-only effect, or effect the other way; inactive means flat fitted curve, though single readings scatter; tested in HEK293 cells; note: % is set by controls: 0 for no effect and ±100 for the full control effect; nearly all actives have a fitted effect of over 50% in size; luciferase read-out
# SARS PLP yeast: inhibitors of SARS-CoV papain-like protease in yeast; S. cerevisiae expressing SARS-CoV PLpro, growth rescue; control for the full effect not named in the record; Potency, µM (highest dose often 32.9 µM), for inactives: at the top dose activity, positive = growth rescue; actives 0.19% (n = 330,000); active means well fitted rising curve with a large enough effect; inconclusive means small, poorly fitted or top-dose-only effect; inactive means no such curve, though single readings can be large or run the other way; note: 0% is about no effect; nearly all actives have a fitted effect of over 55% in size; growth read by luminescence after 48 h
# Cruzain inh Det: inhibitors of Trypanosoma cruzi cruzain with detergent; P25779; purified cruzain, Z-FR-AMC fluorescence, 0.01% Triton; Potency, µM, for inactives: max response, negative = inhibition, actives largely listed as inhibitors; actives 0.43% (n = 200,000);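 note: plate controls were neutral wells for no effect and buffer without enzyme for full effect; nearly all actives have a fitted effect of over 40% in size; top concentration of the series not given in the record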
# Target sequence (P25779 123-467 limits assumed): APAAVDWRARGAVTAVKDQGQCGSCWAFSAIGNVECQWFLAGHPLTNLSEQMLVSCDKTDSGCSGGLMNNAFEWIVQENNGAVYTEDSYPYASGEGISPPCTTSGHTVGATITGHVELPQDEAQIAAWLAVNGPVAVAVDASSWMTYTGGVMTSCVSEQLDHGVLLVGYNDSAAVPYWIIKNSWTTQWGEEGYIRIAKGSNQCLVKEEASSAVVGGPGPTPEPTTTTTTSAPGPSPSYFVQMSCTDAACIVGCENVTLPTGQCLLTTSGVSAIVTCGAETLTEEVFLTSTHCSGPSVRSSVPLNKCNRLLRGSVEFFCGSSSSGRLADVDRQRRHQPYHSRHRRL
#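 Cruzain (1.5 nM) preincubated 15 min at RT with compound in 100 mM sodium acetate pH 5.5, 5 mM DTT, 0.01% Triton X-100. Reaction started with 2 uM Z-FR-AMC; AMC fluorescence (ex 360/em 450 nm) change over 60 s gave rate.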
# Cruzain noTriton: inhibitors of Trypanosoma cruzi cruzain without detergent | P25779 | purified cruzain, Z-FR-AMC fluorescence, no detergent | Potency, µM, for the others: max response, negative = inhibition, actives largely listed as inhibitors | actives 2.3% (n = 200,000) | AID 1476;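 note: plate controls were enzyme without inhibitor for no effect and buffer without enzyme for full effect; nearly all actives have a fitted effect of over 40% in size; top concentration of the series not given in the record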
#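 Purified cruzain at 1.5 nM, pre-incubated 15 min with compound at room temperature in 100 mM sodium acetate pH 5.5, 5 mM DTT, 0.00005% Triton X-100. Reaction started with 2 uM Z-FR-AMC; AMC fluorescence increase over 60 s gives rate.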
# * marks the source's active call; other numbers are inactive results; ? = inconclusive; . = not tested or not shown; & = joins results of further samples; [ ] = another dose, or the depositor's remark. Unless noted, calls come from the whole dose curve; as a rule, active = well fitted curve in the direction sought with a large enough effect; inconclusive = small, poorly fitted or top-dose-only effect, or another doubt; inactive = no such curve, though single readings can be large; an effect the other way counts as inactive or inconclusive. Potency is the fitted concentration of half-maximal effect.
Molecule,LASV entry inh,2A StopGo,Cruzain inh Det,Cruzain noTriton,Marburg entry inh,SARS PLP yeast,NS1 function inh,RE007 growth inh
CSc1nc2ccccc2n1C(=O)Oc1ccccc1,-2%,5%,-7.4%,2%,-9%,-6%,-74%,-25%
O=C(CN1CCN(c2cccc(C(F)(F)F)c2)CC1)N(C1CCCC1)C1CCS(=O)(=O)C1 (stereo not given),-18%,-14%,.,.,-8%,4%,.,1%
O=C(NC1CCS(=O)(=O)C1)c1ccc2c(c1)OCO2 (stereo not given),2%,-20%,.,.,2%,-2%,.,6%
Cc1ccc(N(CC(=O)NCCc2ccccc2)C(=O)CCC(=O)Nc2cc(C)ccn2)cc1,?,-1%,.,.,10%[46.1 µM],-4%,-9%,-4%
Cn1c(C(=O)N[C@@H](Cc2ccccc2)C(=O)O)cc2cc(Cl)ccc21,6%,-12%,.,.,0%,1%,5%,15%
CC(c1nc2scc(-c3ccccc3)c2c(=O)[nH]1)N1CCN(CC(=O)NC2CC2)CC1 (stereo not given),-16%[46.1 µM],-21%,.,.,-12%,2%,.,12%
O=c1[nH]n2c(=O)c3c([nH]c2c1N=Nc1cccc(C(F)(F)F)c1)CCCC3,-10%,-23%,-14%,6%,-16%,0%,?,20%
C/C(=N\OCC(=O)Nc1ccc(F)c(F)c1F)c1cc2ccccc2o1,-14%,20%,-14%,4%,12%,-45%,-32%,-9%
O=C1CC(SC2=NCCS2)C(=O)N1c1ccc(Br)cc1 (stereo not given),?,2%,-5.1%,?,-4%,-14%,4%,0%
CNC(=O)NC(=O)CN1C(=O)NC2(CCOc3ccccc32)C1=O (stereo not given),10%[46.1 µM],-4%,.,.,0%[46.1 µM],1%,2%,14%
Cc1ccc(SCC(=O)OC(C)C(=O)NCc2ccccc2)cc1C (stereo not given),6%,6%,.,.,-10%[46.1 µM],-1%,.,-19%
Cc1ccccc1N(CC(=O)NCCc1ccccc1)C(=O)c1ccc(N2CCCC2)nc1,19%,-20%,0.1%,11%,?,-1%,-34%,-4%
O=C(/C=C/c1ccccc1)c1ccc(NC2=NCCCS2)cc1,-2%,-47%,-11%,?,?,-24%,-24%,.
O=c1c[n+]([O-])c2ccccc2n1OCc1c(F)cccc1F,-3%,5%,-1.2%,-11%,-4%,9%,18%,0%
Cc1ccnc(NC(=O)C2CC(=O)N(Cc3ccccc3)C2)c1 (stereo not given),?,11%,.,.,?,0%,.,?
Cc1nc(Nc2cc(F)ccc2C)c2nnn(Cc3ccccc3)c2n1,-10%[46.1 µM],-14%,.,.,?,-8%,-25%,-10%
O=C(O)CC(CC(=O)Nc1nncs1)c1ccccc1 (stereo not given),0%,3%,4.4%,14%,27%[46.1 µM],1%,-5%,?
CCOC(=O)C1=C(C)Nc2sc(C(=O)c3ccc(OC)cc3)c(N)c2C1c1ccc(C(=O)OC)cc1 (stereo not given),?,-9%,-3.4%,32µM*,?,1%,27%,22%
Clc1ccc(CN=C(Nc2ccccc2)NC2CCCCC2)cc1,?,-24%,.,.,?,1%,3%,-10%
CCOC(=O)CSc1nc(Nc2ccc3c(c2)OCO3)c2ccccc2n1,-9%,?,-6.8%,-1%,2%,-28%,-35%,3%
Cc1ccc(C(C(=O)NC2CCCC2)N(C(=O)c2csnn2)c2ccccc2)o1 (stereo not given),9%,-3%,.,.,19%[46.1 µM],-1%,-3%,-5%
COc1ccc(C(=O)Nc2ccc3oc(-c4cccc5c(Br)cccc45)nc3c2)cc1,1%[46.1 µM],-23%,-1.3%,3%,.,.,.,.
COc1ccc(OC)c(NC(=O)c2ccc(CN(c3cc(Cl)ccc3C)S(=O)(=O)c3ccccc3)cc2)c1,-15%,-14%,2.6%,10µM*,?,-1%,12%,-1%
CN(C)S(=O)(=O)N(CC(=O)NCCSc1ccccc1)c1ccccc1,2%[46.1 µM],9%,-2.0%,-11%,-5%[46.1 µM],.,.,.
CCOC(=O)c1cnc2c(C)cc(C)cc2c1NCCc1ccc(OC)c(OC)c1,16%[46.1 µM],?,-1.6%,-5%,8%[46.1 µM],.,.,.
N#Cc1cccc(NC(=O)C2CCN(c3ncccn3)CC2)c1,17%[46.1 µM],-15%,-3.9%,-8%,-2%[46.1 µM],.,.,.
CCOC(=O)CSc1ccc(C(=O)Nc2ccc(OC)cc2)cn1,26%[46.1 µM],4%,.,.,?,-1%,-2%,-23%
O=C(N=C1SC2CS(=O)(=O)CC2N1c1cc(Cl)ccc1Cl)C1CC1 (stereo not given),.,-16%,.,.,.,9%,1%,3%
N#CC1(NC(=O)CSc2ccccn2)CCCCC1,0%[46.1 µM],9%,.,.,?,-7%,.,5%
CCOc1ccc(NC(=O)CSc2nc3ccsc3c(=O)n2CCC(=O)O)cc1,.,-4%,.,.,.,1%,-2%,-10%
CC(C)c1cc(C(=O)O)n(-c2ccccc2)n1,-7%,.,5.2%,-10%,7%,4%,4%,-3%
Cc1cc(C(F)(F)F)c(C#N)c(N2CCOCC2)n1,2%,-16%,-0.9%,1%,?,5%,-4%,-9%
CCCn1c(CN2CCN(C(=O)OCC)CC2)nc2c1c(=O)n(C)c(=O)n2C,.,?,.,.,.,2%,-93%,5%
CCN(c1cccc(C)c1)C(C(=O)Nc1ccc(OC)cc1)c1cc2c(cc1[N+](=O)[O-])OCO2 (stereo not given),-6%,20%,-1.7%,?,?,-6%,-11%,-6%
O=C(Nc1ccc(C(=O)O)cc1)Nc1cccc([N+](=O)[O-])c1,-3%,-18%,-2.1%,7%,?,5%,16%,10%
Cc1ccc2c(c1)nnn2C1CCN(S(=O)(=O)c2ccc(C(=O)N3CC(C)CC(C)C3)cc2)CC1 (stereo not given),?,0%,2.4%,-4%,-25%&-25%,1%,-21%,-5%
CCc1nn2c(=O)cc(CSc3nc(C)cc(=O)[nH]3)nc2s1,.,-15%,-1.2%,3%,.,-2%,-1%,5%
Cc1ccc2occ(/C=C/C(=O)c3ccccc3O)c(=O)c2c1,13%,-19%,3.6%,-5%,-17%[46.1 µM],1%,-10%,-15%
CCN(CC)CCC(c1ccc(OC)cc1)c1c(O)cc(OC)cc1OC (stereo not given),.,-11%,.,.,.,0%,1%,-10%
O=C(c1ccccc1F)N1CCN=C1SCc1cccnc1,.,-19%,0.8%,-2%,.,2%,14%,-6%
O=C(N/N=C/c1cccnc1)c1cc2ccccc2o1,-9%,32%[activator],-3.2%,3%,-30%,-21%,-19%,6%
Nc1cc(=O)[nH]c(SCc2cccc3ccccc23)n1,.,?,.,.,.,-2%,-2%,20%
CCc1nnc(NC(=O)CSc2nnc(-c3c[nH]c4ccccc34)n2C)s1,-12%,-11%,0.9%,14%,-10%,5%,5%,-2%
Cc1ccc(S(=O)(=O)NC(=O)NCc2ccc3c(c2)OCO3)cc1,20%,0%,2.0%,-5%,25%,4%,22%,-3%
O=C(COc1ccccc1)N(Cc1ccco1)c1ccc(O)cc1,8%,?,-2.3%,4%,24%,-3%,4%,-17%
CCOC(=O)c1cc(C(=O)NN)c(C)nc1C,1%,-15%,-3.1%,1%,0%,9%,3%,31%
COCCN(CCOC)Cc1c(O)ccc2c1O/C(=C\c1ccco1)C2=O,-17%[46.1 µM],-2%,.,.,-4%[46.1 µM],-3%,14%,7%
COc1ccc(-c2nnc(SCC(=O)NC3CCCC3)nc2-c2ccc(OC)c(OC)c2)cc1OC,?,-3%,1.2%,3%,.,.,.,.
Cc1ccc(S(=O)(=O)N/N=C/c2ccc(C#N)cc2)cc1,2%[46.1 µM],39%[activator],.,.,1%[46.1 µM],-1%,5%,7%
COc1cccc(NC(=O)CN(C)C(=O)c2ccc(-c3ccc(Cl)cc3)o2)c1,1%,9%,.,.,?,-20%,.,3%
CC(NC(=O)Nc1ccccc1)c1ccccc1 (stereo not given),12%,-22%,2.6%,7%,2%,0%,-9%,-18%
CC1=NNC(=O)C1Cc1ccccc1 (stereo not given),22%[46.1 µM],17%,.,.,?,.,.,3%
N#CCCn1cc(C(=O)O)c(-c2cccc([N+](=O)[O-])c2)n1,.,-3%,.,.,6%[46.1 µM],-2%,.,5%
Cc1cc(Oc2ccccc2)nc(SCC(=O)Nc2ccc(Cl)c(Cl)c2)n1,-15%,-25%,-0.9%,-6%,?,-24%,-55%,21%
COc1ccc(C(=O)c2ccc(N3CCN(C(=O)c4ccc(F)cc4)CC3)c(F)c2)cc1Br,-14%,?,-7.6%,-20%,7%,6%,1%,10%
CCOc1ccc(C2=CC(c3cccc(Br)c3)n3c(nc4ccccc43)N2)cc1Cl (stereo not given),-21%[46.1 µM],3%,-1.6%,?,.,.,.,.
COc1ccc(-c2nc(NC3=NCCCCC3)sc2C)cc1,?,-20%,.,.,?,-1%,.,-5%
C/C(=N\NC(=O)c1cc(C)[nH]n1)C(C)(C)C,19%,16%,-1.4%,-19%,14%,-5%,14%,-4%
Cc1ccc(S(=O)(=O)CC(=O)N2CCCCCC2)cc1,4%,50%[activator],2.2%,9%,?,1%,4%,-6%
O=C(Nc1ccncc1)C1c2ccccc2Oc2ccccc21,0%,-3%,-3.3%,-4%,6%,-4%,-10%,2%

# Further compounds:
Molecule,LASV entry inh,2A StopGo,Cruzain inh Det,Cruzain noTriton,Marburg entry inh,SARS PLP yeast,NS1 function inh,RE007 growth inh
C=CCC1NS(=O)(=O)OCC1C(C)C (stereo not given),.,1%,.,.,.,-8%,-16%,-5%
Cc1cccc(N2CCN(CCCNc3ncnc4onc(-c5ccc(F)cc5)c34)CC2C)c1 (stereo not given),-15%[46.1 µM],?,0.4%,15%,.,.,.,.
CC1CCN(C(=S)Nc2ccc(SC(F)F)cc2)CC1,-8%,25%,0.5%,-5%,-24%,18%,5%,13%
CC(=O)N1CCC(=NNC(=O)c2cccs2)CC1,0%,9%,0.6%,4%,?,-7%,8%,-10%
